# Mtb growth: M. tuberculosis H37Rv growth inhibitors, H37Rv strain (AID 1626); M. tuberculosis H37Rv growth inhibition; higher % means a stronger effect; inhibition, % at 10 µM, or IC50 in µM where a hit was titrated; 0.95% of 220,000 active;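 active = confirmed in a dose series; inconclusive = inhibition above 80% but not taken into the dose series; inactive = below 80% or under 30% at every dose of the series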;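 note: bacteria incubated seven days before Alamar blue readout; 0% = bacteria only wells and 100% = bacteria with antibiotic wells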
# RecA splice inh: inhibitors of M. tuberculosis RecA intein splicing; P9WHJ3; cell-free RecA intein splicing, fluorescence; inhibition, %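 (about 9 µM by stock and volumes)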; 0.75% of 290,000 active; AID 2221; in the data active = inhibition above about 30%; inconclusive = no clear call, values can overlap the other calls;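 note: 0% = vehicle wells and 100% = reference inhibitor control wells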
# Target sequence (P9WHJ3 whole entry, looked up, canonical isoform): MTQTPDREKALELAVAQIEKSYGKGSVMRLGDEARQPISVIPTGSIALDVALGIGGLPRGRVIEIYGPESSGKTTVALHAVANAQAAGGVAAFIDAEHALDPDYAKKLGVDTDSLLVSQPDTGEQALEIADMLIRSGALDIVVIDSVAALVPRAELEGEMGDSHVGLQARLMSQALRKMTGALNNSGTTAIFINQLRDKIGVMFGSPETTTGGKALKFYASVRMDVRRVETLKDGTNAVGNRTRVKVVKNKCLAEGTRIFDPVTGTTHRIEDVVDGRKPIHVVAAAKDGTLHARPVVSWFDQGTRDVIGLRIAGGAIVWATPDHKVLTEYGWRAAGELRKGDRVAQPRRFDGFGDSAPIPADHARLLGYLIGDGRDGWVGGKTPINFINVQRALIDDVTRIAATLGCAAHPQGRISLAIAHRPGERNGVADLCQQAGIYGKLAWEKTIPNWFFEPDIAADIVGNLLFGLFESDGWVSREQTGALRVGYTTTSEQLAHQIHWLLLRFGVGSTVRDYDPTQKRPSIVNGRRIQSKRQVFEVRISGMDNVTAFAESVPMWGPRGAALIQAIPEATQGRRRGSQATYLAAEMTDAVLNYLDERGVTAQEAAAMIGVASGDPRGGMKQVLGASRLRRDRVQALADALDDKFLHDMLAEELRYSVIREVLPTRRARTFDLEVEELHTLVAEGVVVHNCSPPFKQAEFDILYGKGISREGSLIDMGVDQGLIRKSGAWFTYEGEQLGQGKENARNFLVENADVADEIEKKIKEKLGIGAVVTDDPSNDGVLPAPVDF
# Mtb betalactam: beta-lactam sensitization of Mtb H37Rv; M. tuberculosis H37Rv growth with meropenem, percent inhibition; hits of this screen are not shown here; inhibition, % at 25 µM; 0.27% of 330,000 active;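 active = about 74% or more and at least 40 points above the plate without the antibiotic, then above 30% in a dose series; inconclusive = first-round hits that could not be retested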;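 note: growth measured after seven days incubation then overnight dye step; 0% = bacteria only wells and 100% = bacteria with antibiotic; twin plates without the antibiotic show which effects depend on it; some results filed as inactive read as strong as hits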
# Arbovirus anti: antivirals against arbovirus infection; inhibition, % at 10 µM; 0.37% of 200,000 active; arbovirus infection cell-based antiviral screen;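 active = inhibition from about 30%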;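 note: bluetongue infection of BSR cells; cell survival read as ATP light after 72 h; 0% = infected wells without compound and 100% = uninfected wells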
# YopH PTP inh: blocks Yersinia enterocolitica YopH tyrosine phosphatase; fluorescence Ex485/Em525; inhibition, %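 (about 10 µM by stock and volumes)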; 0.16% of 140,000 active; AID 898;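 active = inhibition of 50% or more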;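 note: controls were vehicle for no effect and minimum signal wells for full effect; inactives centre near -20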
# The depositor's hits bear a star; u = inconclusive; x = no result given; & = joins results of further samples. This is a subset, so the mix of outcomes need not match the whole.
SMILES,Mtb growth,RecA splice inh,Mtb betalactam,Arbovirus anti,YopH PTP inh
CCCCN(C)CCN1C(=O)C2C(C(=O)Nc3cccc(OC)c3)C3C=CC2(O3)C1C(=O)NC1CCCCC1C (stereo not given),x,0.4,-6,x,x
CC(CCc1ccc(O)cc1)NCc1ccc(Br)cc1 (stereo not given),x,1.2,-7,x,x
NCCCS(=O)(=O)O,-3%,-0.3,3&-2,-1,-56
Cc1sc2nc(SCC(N)=O)n(C)c(=O)c2c1C,-6%,-1.1,-1,-2,-13
O=C(CSc1ncccc1C(=O)O)NCc1ccc(F)cc1,0%,-2.7,-2,1,-32
Cc1cc(NS(=O)(=O)Cc2ccccc2)no1,-9%,-0.2,-1,5,-33
CC1(C)Cc2ccccc2C(NNC(=O)c2ccccc2)=N1,1%,1.8,6,10,x
Cc1cc(=O)n2[nH]c(-c3ccccc3)cc2n1,x,-2.3,-7,-2,-94
O=C(c1ccc(=O)n(Cc2ccc(Cl)c(Cl)c2)c1)N1CCOCC1,4%,2.1,-13,1,-43
Cc1ccc(CC(=O)NCCCn2ccnc2)cc1,5%,-2.6,-4,-3,x
Cn1c(SCC(=O)Nc2ccccc2)nnc1-c1ccc2nonc2c1,2%,-0.9,-8,x,x
COc1ccccc1-c1cc(C(=O)N2CCN(c3ccc(F)cc3)CC2)no1,4%,1.3,x,1,-48
COc1ccc(C(C(=O)NC2CCCCC2)N(C(=O)c2snc(C(N)=O)c2N)c2ccccc2OC)cc1 (stereo not given),x,-2.4,8,x,x
O=C(c1ccco1)N1CCN(S(=O)(=O)c2ccc3[nH]c(=O)oc3c2)CC1,-5%,-0.5,-6,9,-28
c1ccc(SCc2cn(C[C@H]3CC[C@@H]([C@@H]4CC[C@H](Cn5cc(CSc6ccccc6)nn5)O4)O3)nn2)cc1,x,2.7,-6,x,x
Cc1ccccc1-n1c(O)c(C=Nc2ccc3c(c2)OCO3)c(=O)[nH]c1=O,>100µM*,-2.3,94,-17,-14
CCOc1ccc(Br)cc1S(=O)(=O)Nc1ccc(NC(=O)c2ccccc2F)cc1,3%,0.6,-1,-6,-13
C=CCNC(=S)/N=c1/ccccn1CC,-7%,-4.7,-1,x,x
CN(CC(=O)Nc1ccc(Cl)c(C(F)(F)F)c1)C(=O)Cc1c[nH]c2ccccc12,x,1.9,1,x,x
Cc1ccccc1-n1c(SC2CCOC2=O)nnc1-c1ccncc1 (stereo not given),-11%,-5.7,-7,-1,x
Cc1cc(C)c(S(=O)(=O)Nc2ccc(C(=O)O)cc2)cc1S(=O)(=O)Nc1ccc(C(=O)O)cc1,x,-0.7,5,x,x
CCCOc1ccc(-c2c(C(=O)N/N=C/c3cccnc3)nnn2-c2nonc2N)cc1,x,-0.8,4,x,x
CCCC(=O)OCC(=O)Nc1cc([N+](=O)[O-])ccc1OC,-1%,-0.9,1,4,x
Cc1cc(C)c2nc(N3CCC(C(=O)N4CCN(C(=O)c5ccco5)CC4)CC3)sc2c1,-2%,1.9,97,-10,-6
COc1ccc(CC(=O)OCC(=O)Nc2ncc(Cl)cc2Cl)cc1OC,-9%,-0.6,u,6,-9
O=C(N/N=C/c1ccccc1O)c1ccc2c(c1)OCO2,x,-2.4,2,x,x
CCCN(C(=O)c1cc(-c2ccco2)nc2ccccc12)c1c(N)n(Cc2ccccc2)c(=O)[nH]c1=O,x,0.2,-4,x,x
O=C1c2ccccc2S(=O)(=O)N1Cc1nc2ccccc2s1,-26%,-2.2,-10,1,-16
CCOC(=O)C(Cc1ccccc1)C(=O)Nc1cccc2ccccc12 (stereo not given),4µM*,4.9,100,-12,-18
Cc1oc(-c2ccccc2F)nc1CSCC(=O)NC1CC1,x,0.2,0,x,x
CCc1nc(-c2ccccc2)cc(=O)[nH]1,-1%,-1.7,-5,11,6
Cc1ccc(C(=O)NCc2nnc3c(C(F)(F)F)cc(Cl)cn23)o1,x,-2.5,0,x,x
Cn1c(SCC(=O)c2c(N)n(C)c(=O)n(C)c2=O)nnc1-c1ccccc1,-4%,0.6,5,2,-15
COc1ccc(C(=O)c2cnc[nH]2)cc1OC,-1%,1.4,2,x,x
COc1ccccc1CC(=O)NNS(=O)(=O)c1ccccc1[N+](=O)[O-],-4%,-7.2,2,2,x
CCOC(=O)N1CCC(NC(=O)c2cc(S(=O)(=O)N3CCc4ccccc43)cn2C)CC1,1%,-0.2,0,1,-54
CCOC(=O)CN1C(=O)S/C(=C/c2ccc(N3CCCCC3)o2)C1=O,-2%,-2.0,35,0,5
CCC(=NCc1ccco1)c1c(O)n(-c2ccccc2)c(=O)[nH]c1=O,-18%,-1.9,-10,1,-19
Cc1ccc(C(=O)Nc2ccc(Cc3ccncc3)cc2)cc1[N+](=O)[O-],x,4.9,1,-13,-27
Clc1ccc(Cn2nnc3ccccc32)cc1,x,0.8,-2,x,x
CC(=O)c1sc(NC(=O)c2ccc(C)cc2)nc1C,2%,-1.4,-14,-4,-12
COc1ccc(C(=O)c2cnc3ccccc3c2-c2ccccc2)cc1,-8%,0.4,0,-12,-19
CC(C)CCNC(=O)C(C)N(Cc1ccc(F)cc1)C(=O)c1ccc(CN2CCOCC2)o1 (stereo not given),-2%,0.8,8,-3,x
CC(C)n1c(O)c(N=Nc2ccc(Cl)nn2)c2ccccc21,5%,1.3,3,-15,-19
Cc1ccc(S(=O)(=O)N2CCCCC2CCNC(=O)C(=O)NCc2ccccc2)cc1 (stereo not given),x,-0.3,-17,x,x
Cc1ccc(N2NC3(CCN(C(N)=O)CC3)NC2=O)cc1,u,1.1,1,-20,x
COc1ccc(CCn2c(C)cc3c(c2=O)C(c2ccncc2)C(C#N)=C(N)O3)cc1OC (stereo not given),-1%,-2.8,x,5,1
CC(=O)c1ccc(NC(=S)N2CCN(CCN3C(=O)c4cccc5cccc(c45)C3=O)CC2)cc1,-6%,1.1,10,-10,-19
Nc1nc(SCC(=O)Nc2ccc(Cl)cc2C(F)(F)F)n[nH]1,x,0.1,-2,x,x
Cc1cc(C)nc(-n2nc(C)cc2NC(=O)c2cccc(S(=O)(=O)N(C)C)c2)n1,1%,0.7,1,x,x
# Going on with the list.
SMILES,Mtb growth,RecA splice inh,Mtb betalactam,Arbovirus anti,YopH PTP inh
O=C1OCCC1Sc1nc2ccccc2c(=O)n1Cc1ccc(F)cc1 (stereo not given),0%,-0.8,-8,11,-25
Cc1nc(Cl)c2c(n1)N(CC(N)=O)C(=O)CO2,-3%,x,-7,10,-31
COC(=O)Cn1ncc2c3ccccc3n(C)c2c1=O,6%,-2.2,-11,1,-38
COc1ccc(-c2noc(CCCC(=O)NC3CCCCC3)n2)cc1OC,x,0.1,-5,x,x
CCOC(=O)c1cnn2c(C)cc(-c3ccccc3)nc12,-6%,3.4,-1,5,-47
Cc1cc(Cl)c(OCCOCCN2CCC(C)CC2)c(Br)c1,-8%,0.2,-1,-1,-15
CCOC(=O)c1sc(NC(C)=O)c(C(=O)OCC)c1C,4%,-3.8,2,4,-31
CC1CC(C)(C)CC2(C1)NC(=O)N(CC(=O)NCCc1c[nH]c3ccccc13)C2=O (stereo not given),3%,-11,5,32*,-6
c1ccc(-c2ncnc3cc4n(c23)CCC4)cc1,-8%,0.3,-11,6,6
CN(CC1CCCO1)S(=O)(=O)c1ccc(C(=O)N2CCN(c3ccccc3)CC2)cc1 (stereo not given),x,x,7,-1,x
CN(CCOc1ccc(Cl)cc1)C(=O)c1cc([N+](=O)[O-])ccc1N1CCOCC1,x,2.5,-8,x,x
COc1ccccc1NC(=O)/C(C#N)=C/c1cccnc1,x,-1.7,-7,x,x
C=CCNC(=S)NNC(=O)COc1cccc(Cl)c1,1%,0.9,-1,5,-6
COc1ccc(C(=O)CCC(=O)NCCc2c[nH]c3ccccc23)cc1,x,-1.7,5,x,x
COc1ccc(N(CC(=O)Nc2cccc(C)c2)S(=O)(=O)c2ccc(C)cc2)cc1OC,x,-3.2,4,x,x
Cc1ccccc1CN1C(=O)/C(=C\c2ccc(C(=O)NCCN3CCOCC3)cc2)Sc2ccccc21,x,-4.3,48,x,x
CC(C)OP(=O)(OC(C)C)C(Nc1ccccc1)c1cccnc1 (stereo not given),0%,-0.8,3,x,x
O=C(C1=C(O)C(=O)N(CC2CCCO2)C1c1cccc(O)c1)c1ccco1 (stereo not given),x,3.9,-5,x,x
CCCCN(C)C(=O)c1nc2ccccn2c1CN1CCC[C@H]1C(=O)OC,-9%,-2.0,-1,4,x
Cc1ccc2nccc(C(=O)N3CCCC(N4CCN(c5ccc(F)cc5)CC4)C3)c2c1 (stereo not given),x,1.7,u,x,x
O=S1(=O)CCOC[C@H](CC2CCCCC2)N1Cc1cccc(F)c1,x,1.6,5,x,x
COC(=O)CSc1nnc(NC(=O)/C=C\c2ccc3c(c2)OCO3)s1,74%,-1.1,91,-29,-8
COc1ccccc1OCc1nnc(SCC(=O)Nc2ccc(N3CCOCC3)cc2)n1C,x,1.4,4,x,x
O=C(NN1C(=O)/C(=C/C=C/c2ccco2)SC1=S)c1ccncc1,77%,0.8,96,x,x
CCOc1ccc(C(=O)Nc2cnn(Cc3ccc(Cl)c(Cl)c3)c2)cc1,8%,4.1,x,-37,-30
CN(C)S(=O)(=O)c1cccc(C(=O)Nc2ccccc2[N+](=O)[O-])c1,-64%,-2.5,-6,-4,-25
CC(C)(C)c1ccc(C2SCC(=O)N2c2cccc(C(=O)O)c2)cc1 (stereo not given),x,-1.8,0,x,x
O=C(NC12CC3CC(CC(C3)C1)C2)N1CCC(n2nnc3ccccc32)CC1,-2%,4.0,7,-8,-43
C=CCNC(=O)c1ccc(CNS(=O)(=O)c2ccc(NC(C)=O)cc2)cc1,-5%,-1.5,9,2,-8
COc1cc(C(=O)/C=C/c2cccnc2)ccc1O,x,-1.5,79,x,x
Cc1ccc(C2C=C(c3ccccc3)Nc3nc(N4C(=O)CCC4=O)nn32)cc1 (stereo not given),5%,x,x,2,x
CCc1ccc(C(=O)c2cc3ccc(O)cc3oc2=O)cc1,x,0.2,0,x,x
CCCCC(=O)Nc1ccc(C(=O)N(CC)c2ccccc2C)cc1,8%,x,2,-21,x
C/C=C1\COC(C(=O)NCc2ccccc2)(C(F)(F)F)C=C1C=C1CCCCC1 (stereo not given),-2%,3.3,0,x,x
Oc1ccc(-c2[nH]ncc2-c2ccc(Br)cc2)c(O)c1,x,2.7,5,x,x
COc1ccc(S(=O)(=O)CC(=O)c2cc(C)c(O)c(C)c2)cc1,x,-0.1,2,x,x
Cc1ccc(Nc2nc(N)nc(CCl)n2)cc1,74%,11,100,x,x
O=C(NC1CCCCC1)C1CCCN(S(=O)(=O)c2cccs2)C1 (stereo not given),-2%,-1.1,-7,-7,-48
O=C(CCC(=O)Nc1ccc(F)cc1)N/N=C/c1ccccc1,x,0.9,-8,x,x
Cc1[nH]c2ccccc2c1C(=O)C(C)OC(=O)c1ccccc1NCCO (stereo not given),x,2.6,6,x,x
COc1ccccc1Nc1nc(N)nc(CN2CCC(Cc3ccccc3)CC2)n1,65%,2.3,76,8,18
CN1CCN(C(=O)Nc2ccccc2CC[N+](=O)[O-])CC1,-3%,3.3,2,4,x
CC(=O)c1ccc(N2CC(C)(C)C2=O)cc1,x,-1.6,-4,7,x
COc1ccc(/C=c2\sc3nc(-c4ccccc4)c(-c4ccccc4)n3c2=O)cc1OC,x,1.0,2,5,-33
COc1cccc(NC(=O)COC(=O)CNS(=O)(=O)c2c(F)cccc2F)c1,6%,-2.3,-2,3,-30
COc1ccc(CN(C)S(=O)(=O)c2nnc(NC(=O)c3ccccc3OC)s2)cc1OC,x,-2.1,-11,x,x
COc1ccc(-c2cc3c(=O)n(CC(=O)N4CCCC4)ncn3n2)cc1,x,10,7,x,x

# Compound activity (PubChem)
